Source: PubChem
NPYLR7 agonist = agonists of mosquito NPYLR7 receptor, primary screen, cell-based, Aedes aegypti, calcium fluorescence, mosquito biting behavior. activation, % at 10 µM. Aedes aegypti neuropeptide Y-like receptor 7 (NPYLR7). 270,000 compounds, 0.15% hits. HEK293T NPYLR7/Galpha15, GCaMP6s calcium fluorescence. AID 1259423, 2018; in the data active = activation above about 40%;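 also: 0% = vehicle and 100% = reference agonist at the receptor; some compounds past the cut are filed as inactive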
NPYLR7 agonist max-min = recorded beside NPYLR7 agonist, whose call it bears; activation, %; measured here: Max-Min RFU normalised activation; some inactives read as strong as hits;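 span of the calcium signal over five minutes; 0% = vehicle and 100% = native peptide agonist; compound fluorescence can raise it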
* = called active by the depositor; & = joins results of further samples. Not all compounds are listed. The share of hits here may be higher or lower than overall.

Fields – NPYLR7 agonist	NPYLR7 agonist max-min
COc1cc2c(cc1OC)C(CNC(=O)c1ccco1)N(Cc1ccccc1F)CC2 (stereo not given)
    -4	5
O=C(CSc1nnc2ccccn12)Nc1cccc2ccccc12
    -5	-4
Cc1nn(-c2ccccc2)c(C)c1Cc1nn2c(C(C)C)nnc2s1
    -15	-21
OC(c1ccccn1)C1CCN(c2nc3nonc3nc2N2CCSCC2)CC1 (stereo not given)
    7	12
CC1(C)CC(=O)c2cnc3c(c2C1)c(=O)[nH]c(=O)n3Cc1ccco1
    0	19
OC(c1ccc(CN(Cc2cccc(F)c2)CC2CCCO2)o1)(c1cccs1)c1cccs1 (stereo not given)
    11	12
CC(NS(=O)(=O)c1ccc2c(c1)OCCO2)c1ccncc1 (stereo not given)
    -1	-1
O=S(=O)(Nc1c2c(nc3ccccc13)CCCC2)c1ccc(F)cc1F
    -3	-3
CCOC(=O)CC(NC(=O)NCc1ccoc1)c1ccccc1 (stereo not given)
    2	0
CN(Cc1cccc(F)c1)C(=O)C1CCN(c2ccc3nnc(C(F)(F)F)n3n2)CC1
    6	0
Cc1cc(C)c(NC(=O)Cn2c(=O)n(CCc3ccccc3)c(=O)c3ncccc32)c(C)c1
    -3	-2
COc1ccccc1/C=C/C1=NC(=C\C=C/c2ccccc2)/C(=O)O1
    -3	-10
FC(F)Oc1cccc(CN2CC(c3ccccn3)C2)c1
    17	4
Cc1cc(=O)[nH]c(C(C)C)n1
    0	-7
COc1cccnc1-c1ccc(O)cc1
    -3	-4
COC(=O)C1=C(C)NC(=O)NC1c1cc(Cl)cc(Cl)c1OC (stereo not given)
    1	-11
Cc1nnc(SCC(=O)N2CCN(C(=O)c3ccccc3)C(C)C2)n1-c1cccc(Cl)c1 (stereo not given)
    5	7
C=CCOCC(O)CN(Cc1ccco1)Cc1c(C)nn(-c2ccccc2)c1Oc1ccccc1OC (stereo not given)
    5	10
CC(C)c1cc(C(=O)N2CCCn3nc(C(=O)NC4CC4)cc3C2)on1
    29	14
Cc1nc2c(OCC(=O)N3CCOCC3)cccn2c1N(C)C(=O)C1CCCCC1
    12	3

The closing 6 entries of the section before open the next one.
Fields – NPYLR7 agonist	NPYLR7 agonist max-min
COc1cccnc1-c1ccc(O)cc1
    -3	-4
COC(=O)C1=C(C)NC(=O)NC1c1cc(Cl)cc(Cl)c1OC (stereo not given)
    1	-11
Cc1nnc(SCC(=O)N2CCN(C(=O)c3ccccc3)C(C)C2)n1-c1cccc(Cl)c1 (stereo not given)
    5	7
C=CCOCC(O)CN(Cc1ccco1)Cc1c(C)nn(-c2ccccc2)c1Oc1ccccc1OC (stereo not given)
    5	10
CC(C)c1cc(C(=O)N2CCCn3nc(C(=O)NC4CC4)cc3C2)on1
    29	14
Cc1nc2c(OCC(=O)N3CCOCC3)cccn2c1N(C)C(=O)C1CCCCC1
    12	3
CCN1C(=O)C2c3c(OC)ccc4c3C(=CC(C)(C)CO4)CN2C1=O (stereo not given)
    19	29
N#CC1(NC(=O)COC(=O)C2=COCCO2)CCCCC1
    -2	1
O=C(O)Cn1c(SCc2cccc3ccccc23)nc2ccccc21
    -10	-8
O=C1c2ccccc2S(=O)(=O)N1CCn1cnc2sc3c(c2c1=O)CCC3
    15	7
CC1(C(=O)NS(=O)(=O)Cc2ccccc2C(F)(F)F)CCN1C(=O)Cc1ccccc1 (stereo not given)
    3	3
Cc1cc(C(=O)N2CCCC2(C)C(=O)O)no1 (stereo not given)
    -2	-5
Cc1[nH]c2ccccc2c1/C=N\n1c(C)n[nH]c1=S
    2	2
CCC(CC)n1ncc(C)c1NC(=O)CCc1c(C)[nH]c2ccccc2c1=O
    0	-3
Clc1ccc(Cl)c(/C=N/Nc2nccs2)c1Cl
    -1	6
CC1(C)SC2C(NC(=O)Cc3ccccc3)C(=O)N2C1C(=O)O (stereo not given)
    -11	-14
O=C(NCCOc1ccc2nnc(-c3ccccc3Cl)n2n1)Nc1ccc(F)cc1F
    -6	-5
Cc1ccnc(SCCCn2c(N3CC(C)OC(C)C3)nc3c2c(=O)[nH]c(=O)n3C)n1 (stereo not given)
    -2	-3
Cc1nc(Cl)c2sc(=S)n(-c3ccccc3)c2n1
    -1	-4
CCOc1ccc(OCCCOc2cc(C)ccc2C)cc1
    3	7
Cc1cc(C(C)(C)C)cc(C)c1S(=O)(=O)NCc1nnc2ccc(C(F)(F)F)cn12
    12	11
CC(=O)c1c(C)[nH]c(C)c1C(C)=O
    1	7
CC1CN(c2cc(Cl)nc(SCC(=O)N3CCN(c4ccc([N+](=O)[O-])cc4)CC3)n2)CCN1C(=O)C(C)(C)C (stereo not given)
    -3	6
CCn1c(C)c(C(=O)CN(CC2CCCO2)C(=O)c2ccc(OC)cc2OC)c(C)c1C(=O)OC (stereo not given)
    -3	3
Cc1ccn2c3nc(=O)n(-c4ccccc4)c-3cnc2c1
    -12	-16
CNc1cc2c(nn1)CCN(C(=O)c1cc(Cl)c(Cl)n1C)C2
    15	13
C=c1c([N+](=O)[O-])cccc1=c1[nH]/c(=C/C=C/c2ccccc2OC)c(=O)o1
    -14	-16
O=C(CSc1nc2c(c(=O)n1-c1ccc(Cl)cc1)SCC2)NCc1ccc(F)cc1
    -1	47
CC(C)(C)CC(=O)N1CCC(=O)N(CCC#N)C[C@H]2COc3ccccc3[C@H]21
    0	5
COc1ccc(/C=C2N=C(/C=C/c3ccc(Cl)cc3)OC\2=O)c(OC)c1OC
    1	-5
CC(C)CC1CCCN(C(=O)c2ccc3c(=O)n(C)c(=O)n(C)c3n2)C1 (stereo not given)
    9	8
CCC[C@H]1C[C@H]1C(=O)N1CCOc2c(O)cc(-c3cccc(Cl)c3)cc2C1
    12	8
COc1ccccc1/C=C\C(=O)OC[C@@H]1CCCN2CCCC[C@H]12
    0	3
Cc1cnc(N2C(=O)C(C)SC2c2ccco2)s1 (stereo not given)
    -1	-5
CN(Cc1ccco1)C(=O)C(C1CCCC1)N1CCN(C(=O)Nc2cccc(Cl)c2)CC1 (stereo not given)
    6	4
c1ccc(CC2CCN(c3nc(-c4ccc(Oc5ccccc5)cc4)nc4ccccc34)CC2)cc1
    1	-4
O=S(=O)(c1cc2ccccc2o1)N1CC(c2ccccn2)C1
    -3	1
COc1ccc(C(=O)CSc2nnc(-c3ccc(=O)n(C)c3)n2C)cc1
    3	2
CN(CCNC(=O)c1nc2ccccc2[nH]1)S(C)(=O)=O
    1	-3
CC1(C(=O)NCc2ccc(Cl)cc2)CCN1C(=O)CCCc1cccs1 (stereo not given)
    11	8
CCOC(=O)C1=C(C)NC(C)=C(C(=O)OC)C1c1ccc(C)o1 (stereo not given)
    3	4
Cc1ccccc1-n1c(-c2ccc(Cl)cc2)cc(C(=O)N2CCN(C(=O)Cc3cccs3)CC2)c1C
    16	22
CCCCCNC(=O)CN1C(=O)NC(C)(c2ccc(Cl)cc2)C1=O (stereo not given)
    6	2
Cc1onc(-c2ccccc2Cl)c1C(=O)Nc1ccc(-c2nc3ccccc3[nH]2)cc1
    -5	-10
CCOC(=O)NC(=O)c1cn(C(CC)CO)c(=O)[nH]c1=O (stereo not given)
    0	-2
Cc1cc(C)c2c(n1)nn1c(N3CCOCC3)cc(C)nc21
    0	18
C#CCn1c(O)c(N=NC(=O)CNC(=O)/C=C/c2ccco2)c2ccccc21
    -8	-11
CNC(=S)NN=C(C)c1ccc(Cl)s1
    1	-1
Cc1ccc(CN(Cc2ccc(F)cc2)C(=O)CN(C(=O)Nc2ccccc2C)C(C)C)s1
    -5	-5
CCC(=O)N(Cc1ncc(-c2ccc3c(c2)OCO3)[nH]1)C(C)C
    0&10	0&6
Cc1cc(C)cc(-n2nnc3c(=O)n(CC(=O)N(C)c4ccccc4)cnc32)c1
    -5	-8
Cc1cc(C)c(S(=O)(=O)N2CCc3nc(C)nc(N4CCCCC4)c3C2)c(C)c1
    -5	2
Cc1ccc(C(NC(=O)CN2CCCC(c3n[nH]c(C)n3)C2)C2CC2)cc1 (stereo not given)
    5	4
Cc1cc(C(F)(F)F)nc(CCNC(=O)c2cn(CC3CCCO3)nn2)n1 (stereo not given)
    7	3
CC(C)c1ccc(CN2CCCC(O)(CN3CCCNC(=O)C3)C2=O)cc1 (stereo not given)
    10&0	8&0
Cc1cc(CNC(=O)CN2C(=O)CNC2=O)c2[nH]c(-c3ccccc3)c(C)c2c1
    13	17
Cc1[nH]n(-c2ccccc2)c(=O)c1N=Nc1ccc([N+](=O)[O-])cc1
    -2	-5
CN(c1cc(Cl)nc(SCc2ccc(C(=O)N3CCC(n4c(=O)[nH]c5ccccc54)CC3)cc2)n1)C1CCCCC1
    -5	1
N#Cc1cccc(NS(=O)(=O)c2ccc3c(c2)CCC3)c1
    4	3
O=c1c(O)c(-c2ccccc2)[nH]c2ccccc12
    1	2
CCNc1ccc(P(=O)(CC)CC)cc1
    -4&3	-11&1
O=C1CCC(=O)N1Cc1ccc(C(=O)N(Cc2ccccc2)c2ccccn2)cc1
    1	9
CCOC(=O)c1cccnc1N1Cc2cnc(CC(C)C)nc2C1
    28	14
COc1cc(=O)n(-c2ccc(C)cc2)nc1C(=O)NC(C)C
    7	2
COCCN(CC(=O)N(Cc1ccc2c(c1)OCO2)Cc1sccc1C)C(=O)c1ccco1
    -3	9
CCCc1nc2ccc(NC(=O)Cc3ccccc3)cn2n1
    3	-5

Remaining list, next part
Fields – NPYLR7 agonist	NPYLR7 agonist max-min
CCCCCOc1ccc(C(=O)Nc2ccc(NC(=O)c3ccc(OCCCCC)cc3)c3c2C(=O)c2ccccc2C3=O)cc1
    -10	1
Cc1ccc2nc(COC(=O)C(C#N)=Cc3cc(C)n(CC(C)C)c3C)cc(=O)n2c1
    1	-4
CSc1ccccc1C(=O)N1CCC(C(Cc2ccccc2)N(C)C(=O)c2ccoc2C)CC1 (stereo not given)
    6	-2
O=C(c1ccsc1)N1CCN(S(=O)(=O)c2cccc(F)c2)CC1
    8	2
CC1(NC(=O)c2cc3c(s2)CCC(C(C)(C)C)C3)CCS(=O)(=O)C1 (stereo not given)
    1	6
Cn1cc(C(=O)N2CCCCCC2)cc(NC(=O)C23CC4CC(CC(C4)C2)C3)c1=O
    -16	-20
Cc1ccc(OS(=O)(=O)c2cn(C)c(=O)n(C)c2=O)cc1
    2	0
O=C(Cc1csc(N2CCCC2=O)n1)Nc1ccc2c(c1)OCO2
    -5	-8
CCc1cn[nH]c1C1CCCN(C(=O)c2csc(-c3cccs3)n2)C1 (stereo not given)
    -1	0
Cc1nnc(SCCCNC(=O)[C@@H]2C[C@@H](O)CN2)s1
    14	2
Cc1nc2[nH]nc(C)n2c(=O)c1CC(=O)O
    -15	-18
CC(NC(=O)C1CCN(Cc2cccc(Cl)c2)CC1)c1cccc2ccccc12 (stereo not given)
    5	-4
Cn1c(=O)[nH]c(=O)c2c1nc(N1CCN(Cc3ccc(Cl)cc3Cl)CC1)n2Cc1ccccc1
    -1	2
O=C(c1cn(CC2CCCO2)cc2c(=O)n(-c3ccccc3)nc1-2)N1CCNCC1 (stereo not given)
    -5	-3
O=S(=O)(Nc1ccc(Cl)cc1)c1ccc(Cl)s1
    0	0
C=CCOCC(O)CN(Cc1cc(OC)cc(OC)c1)C1CC1 (stereo not given)
    19	26
CC1CCN(C(=O)CNC(=O)Cc2ccccc2)CC1
    0	-2
O=[N+]([O-])c1ccc(Sc2nnc(-c3ccco3)o2)c([N+](=O)[O-])c1
    -8	9
CC(Nc1cc(CCN)ncn1)c1ccccc1-n1cccn1 (stereo not given)
    6	5
Cc1c(C)n2c3c(=O)[nH]c(=O)n(C)c3nc2n1-c1ccccc1Cl
    0	-2
O=C(CN1CCN(C(=O)c2ccccc2)CC1)NC1CCS(=O)(=O)C1 (stereo not given)
    7	8
COCCN(Cc1ccc(OS(C)(=O)=O)cc1)C(=O)C(C)C
    6	12
CCO[C@H]1[C@H](NC(=O)c2ccco2)c2ccccc2C12CCN(C(=O)c1sc(C)nc1C)CC2
    16	3
Cn1ccnc1CN1CCOC(CCc2ccccc2)C1 (stereo not given)
    -7	-7
c1ccc(C2CCCN(Cc3nc(-c4cccs4)no3)CC2)cc1 (stereo not given)
    7	5
O=C(NCc1cc2cc(Cl)ccc2[nH]1)C1CCC(=O)N(C2CC2)C1 (stereo not given)
    18	10
O=C(NC(c1ccccc1)c1ccco1)C1CCN(Cc2ccc(Oc3ccccc3)cc2)CC1 (stereo not given)
    15	7
Cc1nn(Cc2ccccc2)c(C)c1CNS(=O)(=O)c1ccc(Cl)cc1F
    -1	-3
Cc1c(F)cccc1N1C(=O)CSC1c1ccc(NC(=O)c2ccccc2Br)cc1 (stereo not given)
    21	17
CCC(c1nc2ccccc2c(=O)n1-c1cccc(C)c1)N(CC)C(=O)c1ccc(OC)cc1 (stereo not given)
    13	15
Cc1ccc(CNC(=O)C(C)Sc2n[nH]c(-c3cccs3)n2)cc1 (stereo not given)
    -6	-5
